From PubChem BioAssay
Anthrax LT inh – blocks cellular internalization of anthrax lethal toxin; Cells, anthrax lethal toxin internalization, FRET ratio (460/530); Potency, µM (titrated, usually from 40 µM), for the others: at the top dose activity change, negative = inhibition, usual class: inhibitors; 70,000 compounds, 0.67% hits; AID 912; active = well fitted falling ratio curve with the 530 nm signal flat; inconclusive = other ratio curves, or a change in one channel alone; inactive = flat curves in the ratio and both channels; the % refers to the ratio; further: on the % scale 0 is the no-effect control and ±100 the full control effect; nearly all actives have a fitted effect of over 50% in size; tested in ME-180 cells; beta-lactamase reporter
SmPrx2 inh – inhibitors of Schistosoma mansoni peroxiredoxin 2; S. mansoni Prx2 activity coupled to TGR/GSH (TGR is thioredoxin glutathione reductase), NADPH fluorescence loss, qHTS; some inactives read as strong as hits; Potency, µM; 65,000 compounds, 0.07% hits; AID 448; active means full or partial inhibition curve with a strong effect at the top dose; inconclusive means weaker partial or single-point curve; inactive means no accepted curve; further: series up to 57 µM; many of its hits are not listed in these tables
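Prx2 inhibition was measured as reduced NADPH consumption when electrons flowed from NADPH through TGR and glutathione to Prx2 and H2O2. Plates were read kinetically over 8 min; enzyme reagents were held at 4 deg C during dispensing.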
* hit, by the source's call; u = inconclusive; x = no result given; [ ] = another dose, or the depositor's remark. Potency means the concentration at half of the fitted maximal effect. Not all compounds are listed. The share of hits here may be higher or lower than overall.

SMILES | Anthrax LT inh | SmPrx2 inh
O=c1c(-c2ccccc2)n[nH]c2ccccc12 | u | >57
Clc1ccc2c(N3CCNCC3)ccnc2c1 | 0% | >57
COc1ccccc1C1SCCN1S(C)(=O)=O (configuration not stated) | -8% | >57
Nc1nc(-c2ccccc2)cc(-c2ccccc2O)n1 | 10% | >57
COc1cc(C)nc(NC(=O)COc2ccc(Cl)cc2C)n1 | 7% | >57
CC(C)=CC(=O)OCC(=O)NC(=O)NC(C)(C)C | 2% | >57
O=C(NCCCn1ccnc1)c1cnn2c1NC(c1ccccc1)CC2C(F)(F)F (configuration not stated) | -18% | >57
CCn1c(=O)cc(OCC(=O)N2CCC3(CC2)OCCO3)c2ccccc21 | 6% | >57
CC(Cc1ccccc1)[n+]1cc(/N=C(\[O-])N(C)C)on1 (configuration not stated) | x | >57
COc1ccc2c(c1OC)C(=O)OC2C1c2c(cc3c(c2OC)OCO3)CCN1C (configuration not stated) | 5% | >57
CCC(Oc1ccccc1)C(=O)Nc1ccccn1 (configuration not stated) | 7% | >57
COc1ccc(NC(=O)NCCCN2CCc3ccccc3C2)cc1 | -9% | >57
CC(=O)Cn1c(N2CCC(Cc3ccccc3)CC2)nc2c1c(=O)[nH]c(=O)n2C | x | >57
Cc1ccc(S(=O)(=O)Nc2ccc3c(c2)nc2n3CCN(Cc3ccccc3)C2)cc1 | -7% | >57
Cc1cccc(NC(=O)CSc2nnc(-c3ccco3)o2)c1C | 6% | >57
CNC(=O)C1(C)C=CCN1C(=O)OC (configuration not stated) | 4% | x
COCCn1c(=O)c(-c2ccc(Cl)cc2)nc2cnc(N(C)C)nc21 | u | >57
O=C(c1ccco1)N1CCN(C(c2ccc(F)cc2)c2nnnn2Cc2cccs2)CC1 (configuration not stated) | 0% | >57
COc1ccccc1NC(=O)c1ccc(S(=O)(=O)N(C)C)cc1 | -9% | >57
CCCn1c2c(c(O)c(C(=O)Nc3nccs3)c1=O)CCCC2 | u | >57
O=C(c1ccccc1)c1ccc(OC(=O)N2CCOCC2)cc1 | u | >57
Cn1ccnc1SCC(=O)NC1CCCCC1 | -9% | >57
Cn1c(=O)c(-c2cccs2)nc2cncnc21 | u | >11
Cc1ccc(Nc2nnc(SCC(=O)NCc3ccco3)s2)cc1 | 2% | >57
Cc1cc(C(=O)O)ccc1[N+](=O)[O-] | -4% | x

Reprinted at random: seven compounds from above, in no set order.
SMILES | Anthrax LT inh | SmPrx2 inh
O=C(NCCCn1ccnc1)c1cnn2c1NC(c1ccccc1)CC2C(F)(F)F (configuration not stated) | -18% | >57
Cn1c(=O)c(-c2cccs2)nc2cncnc21 | u | >11
O=C(c1ccccc1)c1ccc(OC(=O)N2CCOCC2)cc1 | u | >57
O=c1c(-c2ccccc2)n[nH]c2ccccc12 | u | >57
Cc1ccc(S(=O)(=O)Nc2ccc3c(c2)nc2n3CCN(Cc3ccccc3)C2)cc1 | -7% | >57
CCn1c(=O)cc(OCC(=O)N2CCC3(CC2)OCCO3)c2ccccc21 | 6% | >57
COCCn1c(=O)c(-c2ccc(Cl)cc2)nc2cnc(N(C)C)nc21 | u | >57

Two of these compounds, reformatted.
Results follow in this order: Anthrax LT inh, SmPrx2 inh
COCCn1c(=O)c(-c2ccc(Cl)cc2)nc2cnc(N(C)C)nc21
  u, >57
O=C(c1ccco1)N1CCN(C(c2ccc(F)cc2)c2nnnn2Cc2cccs2)CC1 (configuration not stated)
  0%, >57

Next section
SMILES | Anthrax LT inh | SmPrx2 inh
CCOC(=O)N1CCOCCOCCN(C(=O)OCC)CCOCC1 | u | >57
CCOc1ccc(NC(=O)CN(C)S(=O)(=O)c2cccs2)cc1 | 5% | >57
CC(=O)NCc1nc2ccccc2n1Cc1ccccc1C | -8% | >57
Cc1sc2nc(SCC(=O)N(CCO)CCO)n(C3CCCCC3)c(=O)c2c1C | u | >57
CCCN(Cc1cc2cc(C)ccc2[nH]c1=O)C(=O)c1cccc(OC)c1 | -20% | >57
CCCCCn1c(CCNC(=O)c2cccs2)nc2ccccc21 | u | >57
CCNc1nc(NCC)nc(Oc2ccc(OCC)nn2)n1 | 6% | >57
O=C1OCCC1Sc1nnc(-c2ccccc2)o1 (configuration not stated) | 5% | >57
c1cncc(C(c2nnnn2C2CCCC2)N2CCCC2)c1 (configuration not stated) | -6% | >57
Cc1ccc(NC(=O)CCN2CCN(C/C=C/c3ccccc3)CC2)cc1C | -14% | >57
COc1cc(C(=O)NCc2ccc(OCCN(C)C)cc2)cc(OC)c1OC | 4%[3.58 µM] | >57
COc1ccc(C2C(C(=O)c3sc(C)nc3C)=C(O)C(=O)N2CCCn2ccnc2)cc1 (configuration not stated) | 5% | >57
CCOc1ccc(C2CC(c3ccc(CC)cc3)n3nc(N)nc3N2)cc1 (configuration not stated) | -4% | >57
CCOC(=O)Cn1c(=O)c2c(nc(Br)n2CC(=O)OCC)n(C)c1=O | u | >57
C[C@]12CC[C@@H]3[C@H](CCC4=CC(=O)CC[C@]43C)[C@]1(O)CC[C@@]2(O)C(=O)CO | -4%[8 µM] | >57
CCOC(=O)N1CCN(S(=O)(=O)c2ccc3c(c2)OCC(=O)N3)CC1 | 11% | >57
CN1CCN(c2ncc3nc(-c4ccc(F)cc4)c(=O)n(C4CC4)c3n2)CC1 | u | >57
NC1=NC(c2cccc(O)c2)n2c(nc3ccccc32)N1 (configuration not stated) | -13% | >57
CCN1C=C(C(=O)OC)C(c2cccc(C)c2)C(C(=O)OC)=C1 | u | >57
CC(C(=O)Nc1ccc(N2CCOCC2)cc1)N1C(=O)c2ccccc2C1=O (configuration not stated) | 6% | >57
CCOc1ccc(N(CC(=O)NC(C)(C)C)C(=O)c2ccco2)cc1 | -1% | >57
O=C(Cc1ccc(F)cc1)OCC(=O)c1cc2ccccc2o1 | 8% | >57
CCCCn1cnc2cc(NCc3cccc(OC)c3O)ccc21 | u | >57
O=C(NCCc1ccc(Cl)cc1)C1CCCN(S(=O)(=O)c2cnc[nH]2)C1 (configuration not stated) | -17% | >57
N=C1C=CC=C2C1=NC1(CCCCC1)N2O | 8% | x

(more compounds)
SMILES | Anthrax LT inh | SmPrx2 inh
Cc1cc(NC(=O)CN2CCN(c3ccccc3F)CC2)nc2c1c(=O)oc1ccccc12 | -7% | >57
CN1CCN(c2oc(COc3ccc(-c4ccccc4)cc3)nc2C#N)CC1 | x | >57
Cc1ccc2c(c1)c1ncnc(N3CCc4ccccc4C3)c1n2C | u | >57
COC(=O)c1ccc(Cc2ccc(C(=O)OC)o2)o1 | -14% | >57
CCn1c(=O)cc(OCC(=O)N(C)c2ccccc2F)c2ccccc21 | 13% | >57
CC1=Nn2c(nc(-c3ccccc3)c2-c2ccccc2)N(CC(N)=O)C(=O)C1 | -7% | >57
O=C(Nc1cccc(C(F)(F)F)c1)C1CCN(S(=O)(=O)c2cnc[nH]2)CC1 | -5% | >57
C[C@H]1CCCC2(CC[N+](C)(CCC[N+](C)(C)C)CC2)C1 (some centres not stated) | 1%[8 µM] | >57
CCCCCCn1c(=O)c(C(=O)Nc2c(C)n(C)n(-c3ccccc3)c2=O)c(O)c2ccccc21 | -8% | >57
c1nnc2c3c4c(sc3ncn12)CCC4 | u | x
NS(=O)(=O)c1cc2c(cc1C(F)(F)F)NCNS2(=O)=O | 4%[3.58 µM] | >57
CCc1nnc(NC(=O)c2ccc(N3C(=O)CCC3=O)cc2)s1 | 0% | >57
NNCc1cccc(O)c1 | 6% | >57
CCCOc1ccc(C(=O)Nc2cc(-c3nn4c(C)nnc4s3)ccc2C)cc1 | u | >57
COc1ccccc1C(=O)Nc1cccc(NC(C)=O)c1 | 0% | x
COc1ccc(NC(=O)c2cccnc2N2CCCCC2)cc1 | 0% | >57
O=C(OCc1nc2ccccc2s1)c1cccs1 | u | >57
COCc1nnc(NC(=O)CCCOc2ccccc2)s1 | 7% | >57
CCOC(=O)Nc1ccc(S(=O)(=O)NCCCN2CCOCC2)cc1 | -5% | >57
O=C(O)c1ccc(NC(=O)C2(c3ccccc3)CCOCC2)cc1 | 8% | >57
CC1(C)Cc2ccccc2-c2nc(CN3CCOCC3)[nH]c(=O)c21 | -1% | >57
CCOC(=O)C1=C(C)N=c2s/c(=C/c3ccco3)c(=O)n2C1c1cccc(OC)c1 (configuration not stated) | u | >57
CCn1cc(CN(C)C(=O)CSc2nc(-c3ccco3)cc(C(F)(F)F)n2)c(C)n1 | -19% | >57
CC(C)CC(c1nnnn1C(C)C)N1CCN(c2cccc(Cl)c2)CC1 (configuration not stated) | u | >57
CCOC(=O)C1CCN(S(=O)(=O)c2ccc(OCC(=O)OC)cc2)CC1 | -7% | >57

The list goes on.
SMILES | Anthrax LT inh | SmPrx2 inh
CCn1c(C(O)c2ccc(C)cc2)nc2ccccc21 (configuration not stated) | u | >57
O=C(CSc1nnc(Cn2cnc3ccccc32)o1)c1ccccc1 | 1% | >57
COCc1nnc(NC(=O)c2ccc(S(=O)(=O)N(C)c3ccccc3)cc2)o1 | 3% | >57
Cc1ccc(O)cc1 (tested in a mixture with another compound) | -5%[8 µM] | >57
CCOC(=O)Cn1nnnc1CN(Cc1ccc(OC)cc1)Cc1cc2cc(C)cc(C)c2[nH]c1=O | -4% | >57
Cc1nc2ccccc2c(=O)n1-n1cnnc1 | -5% | >57
Cc1csc(NC(=O)CSCC(=O)Nc2ccccc2)n1 | 6% | >57
CCOC(=O)c1sc(=S)n(-c2ccc3c(c2)OCO3)c1N | u | >57
CN(C)c1ncc2nc(-c3ccc(Cl)cc3)c(=O)n(C)c2n1 | u | >57
CCOc1ccc(NS(=O)(=O)c2ccc3[nH]cc(C(=O)NC(C)CC)c(=O)c3c2)cc1 (configuration not stated) | -7% | >57
O=C(CNC(=O)c1ccco1)NCCCc1ccccc1 | 8% | >57
CC(=O)c1ccc(NC2OC(C)C(O)C(O)C2O)cc1 (configuration not stated) | 3% | >57
Cc1nn(C)c(C)c1S(=O)(=O)N1CCC(C(=O)Nc2ccc3c(c2)OCCO3)CC1 | 16% | >57
COc1ccc2[nH]c(=O)c(CN(CCN3CCCC3)C(=O)Nc3ccccc3Cl)cc2c1 | -17% | >57
CC(=O)Nc1ccc(S(=O)(=O)Nc2nc(C)cc(-n3nc(C)cc3C)n2)cc1 | -4% | x
c1cnc(Oc2ccc(-c3nnco3)cc2)cn1 | -5% | >57
CCOc1cc(S(=O)(=O)N2CCN(Cc3ccccc3)CC2)ccc1Br | u | >57
CN1CCN(S(=O)(=O)c2cccc(S(=O)(=O)c3ccc(Cl)c(Cl)c3)c2)CC1 | u | >57
Cc1ccc(N2CC(C(N)=O)CC2=O)cc1 (configuration not stated) | 4% | >57
COc1ccc(C(CC(=O)O)NS(=O)(=O)c2ccc(C)cc2)cc1OC (configuration not stated) | 6% | >57
CCOC(=O)Cc1csc(NC(=O)CSc2nc3cccnc3n2CC)n1 | -5% | >57
COC(=O)c1ccc(OCC(=O)Nc2nn(-c3ccccc3)nc2C(N)=O)cc1 | 3% | >57
Cc1ccccc1C(=O)N(C)Cc1ccccc1 | 4% | >57
S=C(c1ccc(N2CCOCC2)cc1)N1CCOCC1 | -1% | >57
CC(=O)Nc1cccc(NS(=O)(=O)Cc2ccc(Cl)cc2)c1 | 14% | >57

Compound profiles, from the list above. Values in the order: Anthrax LT inh | SmPrx2 inh
Entry for `c1cnc(Oc2ccc(-c3nnco3)cc2)cn1` = -5% | >57
Entry for `CC(=O)Nc1ccc(S(=O)(=O)Nc2nc(C)cc(-n3nc(C)cc3C)n2)cc1` = -4% | x
Entry for `CCOC(=O)Cc1csc(NC(=O)CSc2nc3cccnc3n2CC)n1` = -5% | >57
Entry for `CN1CCN(S(=O)(=O)c2cccc(S(=O)(=O)c3ccc(Cl)c(Cl)c3)c2)CC1` = u | >57
Entry for `Cc1ccc(N2CC(C(N)=O)CC2=O)cc1` (configuration not stated) = 4% | >57

Additional compounds follow.
SMILES | Anthrax LT inh | SmPrx2 inh
O=S(=O)(Nc1ccccn1)c1ccc(Oc2ccccc2)cc1 | -16% | >57
O=C(O)CCc1nc(-c2ccccc2-n2cccc2)no1 | -2%[8 µM] | >57
CCOC(=O)C(NC(C)=O)(Nc1ccc(S(=O)(=O)Nc2onc(C)c2C)cc1)C(F)(F)F (configuration not stated) | u | >57
COCCSc1ccccc1C(=O)Nc1nccs1 | -10% | >57
CC(C)[C@H](NC(=O)CCn1nnc2ccccc2c1=O)C(=O)O | -4% | >57
COCC(C)n1c(C)cc(C(=O)COC(=O)c2oc3ccccc3c2C)c1C (configuration not stated) | u | >57
COc1ccc(-c2noc(CN(C(=O)C(C)(C)C)C(C)C)n2)cc1 | 12% | >57
Cc1ccsc1C1C=C(c2cccc(Br)c2)Nc2ncnn21 (configuration not stated) | -25% | >57
COc1ccc(C)cc1NC(=O)NC1CCN(Cc2ccccc2)CC1 | -11% | >57
COc1cc(NC(=O)c2c(-c3ccccc3Cl)noc2C)c2ncccc2c1 | u | x
CC1=CC(C)(C)N(C(=O)CSc2nnc(-c3ccccc3)o2)c2ccc(C)cc21 | -22% | x
Cc1cc(C)c(C#N)c(Oc2ccc(O)cc2)n1 | -5% | >57
O=C(CNS(=O)(=O)c1ccc(Br)s1)NCc1ccc2c(c1)OCO2 | 4% | >57

An excerpt from further up:
SMILES | Anthrax LT inh | SmPrx2 inh
O=S(=O)(Nc1ccccn1)c1ccc(Oc2ccccc2)cc1 | -16% | >57
O=C(O)CCc1nc(-c2ccccc2-n2cccc2)no1 | -2%[8 µM] | >57
